Screens: PubChem BioAssay, Johns Hopkins Ion Channel Center
KCNQ2 block: KCNQ2 potassium channel inhibitors, primary screen, cell-based, CHO-K1, FluxOR thallium flux, B-score (AID 2156) | B-score at 10 µM | actives 1.1% (n = 310,000) | Potassium voltage-gated channel subfamily KQT member 2 (Rattus norvegicus), O88943 | 20 min; active compounds read low; only compounds with negative scores are shown here; some inactives read as strong as hits;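 active = fluorescence ratio B-score at most minus 3 library SDs, with starting brightness B-score within 2 library SDs, cut at about -5.5 in these data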
Target sequence (O88943 whole entry, looked up): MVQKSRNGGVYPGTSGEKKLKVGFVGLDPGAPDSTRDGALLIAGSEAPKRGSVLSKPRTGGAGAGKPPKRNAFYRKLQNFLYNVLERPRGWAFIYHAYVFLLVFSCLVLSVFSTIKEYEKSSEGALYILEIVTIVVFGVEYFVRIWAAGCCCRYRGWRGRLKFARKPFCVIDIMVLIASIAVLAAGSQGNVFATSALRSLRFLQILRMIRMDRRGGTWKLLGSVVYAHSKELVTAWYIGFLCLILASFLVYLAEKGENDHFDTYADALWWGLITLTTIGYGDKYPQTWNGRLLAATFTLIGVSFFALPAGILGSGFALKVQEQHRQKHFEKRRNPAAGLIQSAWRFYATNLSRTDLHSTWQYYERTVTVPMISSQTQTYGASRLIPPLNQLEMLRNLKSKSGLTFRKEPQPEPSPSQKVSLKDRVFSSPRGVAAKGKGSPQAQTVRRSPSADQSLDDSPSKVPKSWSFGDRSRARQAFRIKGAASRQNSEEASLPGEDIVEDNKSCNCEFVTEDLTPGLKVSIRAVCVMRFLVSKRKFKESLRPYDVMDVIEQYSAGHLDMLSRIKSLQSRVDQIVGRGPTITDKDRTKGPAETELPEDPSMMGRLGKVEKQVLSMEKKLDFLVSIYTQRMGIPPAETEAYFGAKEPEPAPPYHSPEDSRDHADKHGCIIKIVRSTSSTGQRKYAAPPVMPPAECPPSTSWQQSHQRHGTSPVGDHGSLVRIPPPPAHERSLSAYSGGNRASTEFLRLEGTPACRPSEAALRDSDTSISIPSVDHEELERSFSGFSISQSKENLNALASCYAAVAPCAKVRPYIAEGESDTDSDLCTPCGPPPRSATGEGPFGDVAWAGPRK
KCNQ2 block baseline: also measured in KCNQ2 block; calls as there; B-score; measured here: initial fluorescence intensity artifact check;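 brightness before thallium and not channel activity; 0 = typical well and far values either way flag optical interference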
The depositor's hits bear a star; i = inactive. This is a subset. The share of hits here may be higher or lower than overall.

Values in the order – KCNQ2 block	KCNQ2 block baseline
CSc1ccc(CCNC(=O)C2CCN(c3nnc(-n4cccc4)s3)CC2)cc1
→ i	1.4
Cc1ccc(NC(=O)C2C3CCC(O3)C2C(=O)O)cc1Cl (stereo not given)
→ i	-0.7
Cc1n(Cc2ccccc2)c2ccccc2[n+]1Cc1ccccc1
→ i	0.05
O=c1c2nnn(-c3ccc(Br)cc3)c2ncn1Cc1ccccn1
→ i	-0.54
COC(=O)C1CCN(C(=O)c2ccccc2Oc2ccccc2)CC1
→ i	-0.63
CC1CN(C(=O)Cn2c(=O)oc3ccccc32)CC(C)O1 (stereo not given)
→ i	-0.65
O=C(NC1CCCC1)C1CCCN1C(=O)Nc1ccccc1 (stereo not given)
→ i	0.85
Cc1cccc(OCC(=O)NCc2cc(C)nc3ccccc23)c1
→ i	-0.08
O=C(NCc1ccccc1)c1nc2ccccc2s1
→ i	-2.14
O=C(c1cc(Cl)nc2ccccc12)N1CCc2ccccc2C1
→ i	1.39
Cc1cc(C)c(NC(=O)c2ccc(S(=O)(=O)N3CCOCC3)cc2)c(C)c1
→ i	-1.38
CCN1C(=O)CC(N2CCC(C(=O)N3CCCCCC3)CC2)C1=O (stereo not given)
→ i	1.32
COc1ccc(CN2CCn3ncc(C(=O)Nc4cc(C)cc(C)c4)c3C2=O)cc1
→ i	0.04
O=C(CNC(=O)c1ccc2c(c1)OCO2)N/N=C/c1cc(Br)ccc1O
→ i	-0.95
CC(C)(C)c1ccc(C(=O)Nc2nonc2-c2nc3ccccc3[nH]2)cc1
→ i	-1.18
S=c1[nH]ncc2ccccc12
→ i	0.04
O=C(OC1CCS(=O)(=O)c2sccc21)c1ccccc1 (stereo not given)
→ i	0.79
CCCn1nnc(NC(=O)c2cc(Br)ccc2OC)n1
→ i	2.2
COc1ccc(CCNC(=O)c2cc(C)oc2C)cc1
→ i	-2.94
O=C(O)c1ccc2c(c1)N(Cc1ccccc1)C(=O)c1ccccc1S2=O (stereo not given)
→ i	0.3
CS(=O)(=O)N(Cc1ccc(Cl)cc1)c1ccc(C(=O)NCCC2=CCCCC2)cc1
→ i	-0.73
O=C(N/N=C/c1ccc([N+](=O)[O-])cc1)c1cc2ccccc2o1
→ i	-2.09
Cc1ccc(C2NC(=O)c3sc(=S)n(-c4ccccc4)c3N2)cc1 (stereo not given)
→ i	-1.94
CC(Cc1cccs1)NC(=S)Nc1ccc(Cl)cc1 (stereo not given)
→ i	0.81
COc1ccc(-c2cc(C(F)(F)F)nc(-n3ccnc3C)n2)cc1
→ i	1.76
O=C(NCc1nnc2c(C(F)(F)F)cc(Cl)cn12)c1cccnc1
→ i	1.16
Cc1ccc(NC(=O)C(=O)NCc2ccc(/C=N/NC(=O)c3c(C)nc4ccccn34)o2)cc1
→ i	0.52
CC(C)[C@H](NC(=O)N1CCn2c1nc1ccccc12)C(=O)NC1CCCCC1
→ i	-0.09
CCCCNC(=O)Cc1ccc(C)cc1
→ i	0.12
Cc1ccc(-n2nc(C)c3c2OC(N)=C(C#N)C3c2ccco2)cc1 (stereo not given)
→ i	0.03

Some of the entries so far, with the structure last:
KCNQ2 block	KCNQ2 block baseline	molecule
i	-2.09	O=C(N/N=C/c1ccc([N+](=O)[O-])cc1)c1cc2ccccc2o1
i	-1.94	Cc1ccc(C2NC(=O)c3sc(=S)n(-c4ccccc4)c3N2)cc1 (stereo not given)

(continued)
Values in the order – KCNQ2 block	KCNQ2 block baseline
O=C(Cc1ccc(-n2c(=O)c3ccccc3n(Cc3ccc(F)cc3)c2=O)cc1)NCC1CCCO1 (stereo not given)
→ i	0.27
Cc1cc(S(=O)(=O)NCc2ccccc2)ccc1OCC(=O)NCc1ccccn1
→ i	1.75
CCCN(CCC)C(=O)NC1CC(=O)N(c2ccc(OC)cc2)C1 (stereo not given)
→ i	1.88
Cc1ccc(-c2cccc(C(=O)NCCc3ccccc3)n2)c2ccccc12
→ -6.32*	-0.64*
CC(C)CCOP(=O)(c1ccc(N(C)C)cc1)C(O)c1ccccc1 (stereo not given)
→ i	1.98
COc1cccc(-c2ccc(NC(=O)C3CCCN(Cc4cnc(C)n4C)C3)cc2)c1 (stereo not given)
→ i	1.09
COc1ccc(-n2nnnc2SCC(=O)c2cc3ccccc3o2)cc1
→ i	0.93
CC1(C)CN2C(=O)c3ccccc3C2(C)S1 (stereo not given)
→ i	2.5
COc1ccc(C(=O)N2CCN(S(=O)(=O)c3ccccc3)CC2)c(OC)c1
→ i	-0.58
CN1CCN(Cc2nc3ccccc3n2C)CC1CCO (stereo not given)
→ i	3.6
COCCNC(=O)CSc1nc2cc3c(cc2c(=O)n1CCCC(=O)NCCc1ccc(OC)c(OC)c1)OCO3
→ i	-0.66
Cc1ccccc1C1NS(=O)(=O)N=C1N (stereo not given)
→ i	0.42
CC1(C)CC(=O)c2c(-c3cccnc3)n[nH]c2C1
→ i	3.49
Cc1ccc(-c2nn(CCC(=O)NCC3CCCO3)c(=O)c3ccccc23)cc1 (stereo not given)
→ i	0.3
O=C(Nc1ccccc1)c1ccc(S(=O)(=O)Nc2cccc(O)c2)cc1
→ i	0.32
COc1ccc(NS(=O)(=O)c2ccc(Oc3c(C#N)cccc3C#N)cc2)cc1
→ i	0.49
O=C1C2C3C=CC(C4CC34)C2C(=O)N1/N=C/c1ccc(-c2ccc(Cl)cc2[N+](=O)[O-])o1 (stereo not given)
→ i	-0.72
CCOC(=O)C1CCN(S(=O)(=O)c2ccc(Cl)cc2OC)CC1
→ i	-0.74
COc1ccc2cc([C@H](C)C(=O)N(C)Cc3ccccc3N3CCCC3)ccc2c1
→ i	-0.64
COc1cc2c(cc1NC(=O)CN(C)Cc1cccc(OC)c1OC)oc1ccccc12
→ i	-0.38
COC(=O)c1ccccc1NS(=O)(=O)c1ccc(NC(C)=O)cc1
→ i	1.86
O=c1oc(-c2cccs2)nc2scc(-c3cccs3)c12
→ i	0.47
CCN1CC(CNC(=O)c2ccc3nc(Cc4cccc(Cl)c4)oc3c2)CC1=O (stereo not given)
→ i	-1
CCCCC(=O)NC(c1ccc([N+](=O)[O-])cc1)c1c(O)ccc2ccccc12 (stereo not given)
→ i	1.94
CN(CCNC(=O)c1cccc(N2CCCC2=O)c1)Cc1ccccc1
→ i	2.2
CCOc1ccc(C2C=C(c3ccccc3)Nc3ncnn32)cc1 (stereo not given)
→ i	4.33
COc1cc(N2CCCC2)c(OC)cc1/C=C(/C#N)c1cccc(Br)c1
→ i	1.22
Cc1cc(OCC(=O)N(Cc2cccs2)C2CCS(=O)(=O)C2)ccc1Cl (stereo not given)
→ i	0.68
Cc1cc(C(=O)N/N=C2\CC(=O)CC(C)(C)C2)c(C)n1-c1ccc(F)cc1
→ i	1.54
COc1ccc(/C=C/C(=O)C2(O)CCCCC2)cc1
→ i	0.64

(next part)
mol | KCNQ2 block | KCNQ2 block baseline
O=C(Nc1ccc(Br)cc1)c1cccnc1N1CCCCC1 | i | -0.97
COc1ccccc1N(C)S(=O)(=O)c1ccc(Cl)c(C(=O)Nc2cccc(C)n2)c1 | i | -0.01
C=CCN1C(=O)c2ccc(C(=O)N(CC)CC(=O)Nc3c(F)cccc3F)cc2C1=O | i | -1.93
C=CCN1CC(c2nc3ccccc3n2CCOc2ccccc2)CC1=O (stereo not given) | i | 1.15
COn1c(-n2nc(C)cc2C)nc2ccccc2c1=O | i | -0.62
O=C(Cn1c(=O)n(-c2ccccc2)c(=O)c2sccc21)NCc1ccccc1 | i | 0.08
COc1ccc(C(=O)NNC(=O)CCCCC(=O)NNC(=O)c2ccc(OC)cc2)cc1 | i | -0.15
CC12CCC(=O)N1C(C(=O)Nc1cccc(S(=O)(=O)N3CCCCC3)c1)CS2 (stereo not given) | i | 2.15
CC(C)(C)OC(=O)NCC1CCN(S(=O)(=O)Cc2ccccc2)CC1 | i | -0.15
Cc1ccc(OCc2n[nH]c(=S)n2-c2ccccc2)cc1 | i | 0.53
O=C(N/N=C/c1cccnc1)c1ccc(CN2c3cccc4cccc(c34)S2(=O)=O)cc1 | i | 0.71
CCOC(=O)C1CCN(c2c(C(=O)c3ccccc3)cnc3ccc(Cl)cc23)CC1 | -5.58* | 0.12*
NC(=O)CSc1nc2cc(Cl)ccc2c(=O)n1C1CCCCC1 | i | -0.37
O=Cc1cn(-c2ccccc2)nc1-c1ccc(F)cc1 | i | 0.9
COc1ccc(C2Nc3cccc4cccc(c34)N2)cc1Br | i | -0.01
Cn1c(SCc2c(F)cccc2Cl)nnc1-c1cccs1 | i | 0.74
CCCNC(=O)Cn1c2ccccc2c2nc(=O)cc(C)n21 | i | 0.13
CCOC(=O)COc1ccccc1/C=C\[N+](=O)[O-] | i | 0.59
COc1ccc(/C=N/Nc2nnc(C)n2N)cc1OC | i | 1.7
Cc1ccc2[nH]cc(CCNC(=O)c3ccc4c(c3)OCO4)c2c1 | i | -1.46
CCN(CC)C(=O)C(C)OC(=O)c1ccc(O)cc1 (stereo not given) | i | -0.88
CCN(CC)CCOc1nnc(-c2ccc(C)cc2)c2ccccc12 | i | -0.18
Cc1cc(C)nc(NS(=O)(=O)c2ccc(Br)cc2)n1 | i | -0.05
CCOc1ccccc1N1CC(C(=O)Nc2c(C)n(C)n(-c3ccccc3)c2=O)CC1=O (stereo not given) | i | -0.62
CCOC(=O)c1c(C)[nH]c(C(=O)COC(=O)CSCC(=O)N(CC)CC)c1C | i | 1.39
OCCNCCCOc1cc(Cl)ccc1Cl | i | 1.53
O=C(N/N=C/c1ccc(Br)s1)c1cccs1 | i | 0.19
COc1cc(O)sc1C=Nc1ccc(Cl)cc1Cl | i | 0.42
CCn1nnc(NC(=O)CSc2ccc(Cl)cc2)n1 | i | -1.07
Cc1ccc(C(=O)Oc2cccc(-n3cnnn3)c2)cc1 | i | 0.87

Part of the list above in order of SMILES length, ascending.
mol | KCNQ2 block | KCNQ2 block baseline
COc1cc(O)sc1C=Nc1ccc(Cl)cc1Cl | i | 0.42
CCn1nnc(NC(=O)CSc2ccc(Cl)cc2)n1 | i | -1.07
Cn1c(SCc2c(F)cccc2Cl)nnc1-c1cccs1 | i | 0.74
Cc1ccc(C(=O)Oc2cccc(-n3cnnn3)c2)cc1 | i | 0.87
CCN(CC)CCOc1nnc(-c2ccc(C)cc2)c2ccccc12 | i | -0.18
CCOc1ccccc1N1CC(C(=O)Nc2c(C)n(C)n(-c3ccccc3)c2=O)CC1=O (stereo not given) | i | -0.62

Carrying on:
mol | KCNQ2 block | KCNQ2 block baseline
Nn1c(SCC(=O)NC2CCS(=O)(=O)C2)nnc1-c1cccs1 (stereo not given) | i | 1.42
CC(CNC(=O)CCc1nnc(CCC2CCCCC2)o1)c1ccccc1 (stereo not given) | i | 0.78
O=C(NCC(=O)N(Cc1ccccc1)C(C(=O)NCC1CCCO1)c1ccccc1)c1ccco1 (stereo not given) | i | -1.86
Cc1cccc(CN2CCN(c3ncccn3)CC2)c1 | i | -0.9
CCOC(=O)c1cccc(NC(=O)CN(c2ccc(OC)cc2)S(=O)(=O)c2c(C)noc2C)c1 | i | -0.28
CCCCCCCCC(=O)N/N=C(\C)c1cccnc1 | i | 0.02
Cc1cc(C)nc(SCC(=O)Nc2ccc(S(=O)(=O)NCCO)cc2)n1 | i | -0.59
COc1ccc(OCc2nnc(SCC(=O)N3CCCc4ccccc43)n2-c2ccc(C)cc2)cc1 | i | 1.93
CC1CCc2cc(F)ccc2N1C(=O)c1cc2nc(-c3ccco3)cc(C(F)(F)F)n2n1 (stereo not given) | i | -1.66
CN=C1S/C(=C\c2cccc(Cl)c2Cl)C(=O)N1C | i | -1.52
COc1cc(NC(=O)c2ccccc2)c(OC)cc1NC(=O)Cc1cccs1 | i | 1.56
CCOc1cc(NC(=O)c2ccco2)c(OCC)cc1NC(=O)COc1ccccc1C | i | -0.15
COC(=O)c1c(NC(C)=O)sc(C(=O)Nc2ccccc2F)c1C | i | 0.04
COc1ccc(C)cc1NC(=O)Nc1ccc(C(=O)N2CCCC2)cc1 | i | -0.44
O=C(CCS(=O)(=O)Cc1ccccc1)Nc1nc2c(s1)CCCC2 | i | 0.83
O=C(CCN1C(=O)/C(=C/c2ccc(Cl)cc2)SC1=S)Nc1cccc(C(=O)O)c1 | i | -1.16
Nc1cc(=O)[nH]c(SCC(=O)NNC(=O)c2ccccc2)n1 | i | 2.14
CCCCN1CNC(=S)N(c2ccccc2OCC)C1 | i | -0.66
CCn1c(COC(=O)CNC(=O)c2cc(OC)c(OC)c(OC)c2)nc2cc(S(=O)(=O)N(C)C)ccc21 | i | 0.35
COc1ccccc1NC(=O)NCCN1CCNC1=O | i | 0.73
O=C(CCC1CCCN(Cc2cccc(Cl)c2)C1)NCc1ccccc1F (stereo not given) | i | 0.14
O=c1[nH]c2ccc(NC(=S)Nc3ccc(Cl)cc3)cc2[nH]1 | i | -1.35
O=C(/C=C/c1ccc(F)cc1)NC(=S)Nc1ccccc1C(=O)NC1CCCCC1 | i | 1.08
COc1ccc(N(C(=O)COc2ccccc2OC)S(=O)(=O)c2ccc(C)cc2)cc1 | i | -0.92
CNC[C@H](NC[C@@H](NCCCc1ccccc1)c1ccccc1)[C@H](C)O | i | -0.26
CC1=C(C(=O)Nc2cc(-c3cccc(F)c3)[nH]n2)C2(CCCCC2)OC1=O | i | -0.94
O=C(Cn1c(NCCCO)nc2ccccc21)c1ccco1 | i | -0.51
COc1ccc(CNC(=O)CN(c2cccc([N+](=O)[O-])c2)S(C)(=O)=O)cc1 | i | 1.01
O=C(NCCc1c[nH]c2ccccc12)c1ccccc1 | i | -0.02
O=C(N/N=C/c1ccncc1)c1ccccn1 | i | -0.12
O=C(Nn1c(-c2ccccc2)nc2ccccc2c1=O)c1ccc([N+](=O)[O-])cc1 | i | 3.66

Molecules above that have a CF3 group, in the order listed:
mol | KCNQ2 block | KCNQ2 block baseline
COc1ccc(-c2cc(C(F)(F)F)nc(-n3ccnc3C)n2)cc1 | i | 1.76
O=C(NCc1nnc2c(C(F)(F)F)cc(Cl)cn12)c1cccnc1 | i | 1.16
CC1CCc2cc(F)ccc2N1C(=O)c1cc2nc(-c3ccco3)cc(C(F)(F)F)n2n1 (stereo not given) | i | -1.66
